High-throughput results deposited in PubChem BioAssay by Broad Institute.
DUX4 inh = blocks DUX4-driven transcriptional activation; 293T-iDUX4 ZSCAN4-Gaussia luciferase reporter, 24 h; stronger effect = lower value; activity change, negative = inhibition, % (concentration not given with the values); hit rate 0.8% among 37,000; AID 1224904;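 active means -10% or lower and over 25 points stronger than a control reporter; inconclusive means -10% or lower with a smaller gap; inactive means above -10%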;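 further: 0% = median of neutral control wells and -100% = median of positive control wells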
DUX4 inh difference = recorded beside DUX4 inh, whose call it bears; Gaussia minus Italica difference, %; measured here: selective DUX4 reporter inhibition;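 worked out from the two reporters; negative = selective loss of the DUX4 reporter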
DUX4 inh control = recorded beside DUX4 inh, whose call it bears; activity change, negative = inhibition, %; measured here: Italica tet-on control reporter;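 0 = neutral control and -100 = positive control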
* marks the source's active call; other numbers are inactive results; ? = inconclusive; . = not tested or not shown; ! = repeats disagree.

No.	DUX4 inh difference	DUX4 inh control	DUX4 inh	molecule
1	-6	8.1	2	O=C(C[C@H]1CC[C@H]2[C@@H](COC[C@@H](O)CN2Cc2ccccc2)O1)NCCCN1CCOCC1
2	-2	2.1	0	C[C@H]1CN([C@@H](C)CO)C(=O)c2cc(C#CCc3ccccc3)cnc2O[C@H]1CN(C)CC1CCOCC1
3	7	0.2	7	O=C(C[C@H]1CC[C@@H]2[C@H](COC[C@@H](O)CN2S(=O)(=O)c2cccc(F)c2)O1)NC1CCC1
4	-11	4.0	-7	CN1c2ccc(C#Cc3cccnc3)cc2[C@H]2[C@H](CCN2C(=O)c2cccnc2)[C@H]1CO
5	-15	7.5	-8	CS(=O)(=O)N1[C@@H]2Cn3c(ccc(-c4cccc(F)c4)c3=O)[C@H]1[C@@H](C(=O)N1CCOCC1)[C@@H]2CO
6	-6	1.9	-4	CC=Cc1ccc2n(c1=O)C[C@@H]1[C@@H](CO)[C@H](C(=O)NCc3ccccn3)[C@H]2N1CC1CC1 (mixture of isomers)
7	.	.	?	COc1cccc(CN2CCC3(CC2)CN(C(=O)Nc2ccc(F)cc2)[C@H](CO)c2c3c3ccc(OC)cc3n2C)c1
8	-4	0.2	-3	O=C(NC[C@@H]1[C@@H](c2ccccc2)[C@@H](CO)N1CC1CCCC1)C1CC1
9	4	2.9	6	OC[C@@H]1[C@H](c2ccccc2)C2(CN(Cc3nccs3)C2)N1CC1CCOCC1
10	5	0.2	5	CCCC(=O)Nc1ccc2c(c1)OC[C@H](C)N(C(=O)CN(C)C)C[C@H](C)[C@H](OC)CN(C)C2=O
11	5	1.4	7	C/C=C/c1ccc([C@H]2[C@H](CO)N(S(=O)(=O)CC)C23CN(C(=O)CC)C3)cc1
12	20	-1.9	18	COc1ccc2c3c([nH]c2c1)[C@H](CO)NCC31CCN(C(=O)Nc2ccc(F)cc2)CC1
13	2	-3.3	-1	CC(C)NC(=O)N1C[C@H]2[C@@H](c3ccccc31)[C@H](CO)N2Cc1ccccc1
14	-2	1.4	-1	COc1cccc(-c2cccc(-c3nc(C(=O)NCCCN4CCOCC4)cc4c3[C@@H](CCO)N(S(=O)C(C)(C)C)C4)c2)c1 (some centres not stated)
15	-1	5.0	4	N#C[C@@H]1[C@H](c2ccc(C3=CCCC3)cc2)[C@@H](CO)N1C(=O)c1ccccn1
16	2	4.9	7	CCC(=O)N1C[C@@H](C)[C@H](OC)CN(C)C(=O)c2cc(NC(=O)c3ccccc3)ccc2OC[C@@H]1C
17	-4	5.4	2	CCCNC(=O)N1C[C@@H](C)[C@@H](OC)CN(C)C(=O)c2ccc(NC(=O)CC)cc2OC[C@@H]1C
18	-4	-2.6	-6	O=C(C[C@@H]1CC[C@H]2[C@@H](COC[C@H](O)CN2C(=O)Nc2ccc3c(c2)OCO3)O1)N1CCN(c2ccccc2)CC1
19	-5	0.8	-4	O=C(c1cnccn1)N1CC[C@@H]2[C@H](CO)Nc3ccc(-c4ccccc4)cc3[C@@H]21
20	3	-3.4	-1	CO[C@@H]1CN(C)C(=O)c2ccc(NC(=O)Cc3ccccc3)cc2OC[C@H](C)N(CC2CC2)C[C@@H]1C
21	6	5.7	11	CN1c2ccc(Br)cc2[C@@H]2[C@@H](CCN2C(=O)Nc2ccccc2F)[C@@H]1CO
22	0	1.5	1	Cc1ccc(S(=O)(=O)N(C)C[C@@H]2Oc3c(NS(C)(=O)=O)cccc3C(=O)N([C@H](C)CO)C[C@@H]2C)cc1
23	14	-2.5	11	COc1ccc2c3c([nH]c2c1)[C@H](CO)N(C(=O)c1ccncc1)CC31CCN(C(=O)CC2CC2)CC1
24	-1	-1.4	-3	CNC(=O)C[C@@H]1CC[C@H]2[C@@H](COc3ccc(NC(=O)c4ccccc4OC)cc3C(=O)N2C)O1
25	1	8.7	10	CN1CCN(C(=O)[C@@H]2[C@@H](CO)[C@@H]3Cn4c(ccc(-c5cncnc5)c4=O)[C@@H]3N2CC2CC2)CC1
26	2	-0.3	2	CCC(=O)N1CC2(CCN(Cc3ccncc3)CC2)c2c(n(C)c3cc(OC)ccc23)[C@H]1CO
27	1	0.5	1	O=C(Cc1ccccn1)N1CC(=O)N2[C@H](CO)[C@@H](c3ccc(C#CC4CC4)cc3)[C@@H]2C1
28	-6	5.8	0	C[C@H]1CCCCO[C@@H](CN(C)C(=O)NC2CCCCC2)[C@@H](C)CN([C@@H](C)CO)C(=O)c2cc(N(C)C)ccc2O1
29	-3	1.9	-1	C[C@@H]1CN([C@@H](C)CO)C(=O)c2cc(NC(=O)CCCN(C)C)ccc2O[C@@H](C)CCCCO[C@H]1CN(C)Cc1ccc(C(F)(F)F)cc1
30	5	-3.4	2	COC(=O)[C@@H]1[C@@H](CO)[C@@H]2Cn3c(cccc3=O)[C@@H]2N1C(=O)C1CC1
31	-2	0.1	-1	CO[C@H]1CN(C)C(=O)c2ccc(NS(C)(=O)=O)cc2OC[C@@H](C)N(Cc2ccccc2)C[C@H]1C
32	-16	14	-2	OC[C@H]1[C@H](c2ccc(-c3ccccc3F)cc2)[C@@H]2CN(Cc3cccnc3)CCCCN12
33	1	2.7	3	CO[C@H](CN(C)C(=O)Nc1ccc(Cl)cc1)[C@@H](C)CN(Cc1ccccc1Cl)[C@H](C)CO
34	3	7.4	11	COc1cccc(-c2ccc([C@H]3[C@H](CO)N4CCCCN(Cc5cncnc5)C[C@@H]34)cc2)c1
35	5	5.9	11	CO[C@@H]1CN(C)C(=O)c2cc(NC(=O)C3CC3)ccc2OC[C@@H](C)N(Cc2ccccc2C(=O)O)C[C@H]1C
36	1	-0.5	1	CO[C@@H]1CN(C)C(=O)c2ccc(NC(=O)C3CCC3)cc2OC[C@H](C)N(C(=O)CN(C)C)C[C@@H]1C
37	29	7.6	36	CN(C)C(=O)c1cccc(-c2ccc([C@H]3[C@H]4CN(S(C)(=O)=O)CCCCN4[C@H]3CO)cc2)c1
38	0	3.9	4	COC(=O)C[C@@H]1C[C@@H]2c3cc(NC(=O)Cc4ccncc4)ccc3O[C@@H]2[C@@H](CO)O1
39	-1	-1.0	-2	Cc1ccccc1S(=O)(=O)N1C[C@@H](O)COC[C@@H]2O[C@@H](CC(=O)NCc3ccccc3Cl)CC[C@H]21
40	10	6.7	16	C/C=C/c1ccccc1[C@@H]1[C@@H](C#N)N(C(C)=O)[C@@H]1CO
41	-2	-3.1	-5	CCN1[C@H](C(=O)NC2CCC2)[C@@H](CO)[C@@H]2Cn3c(ccc(-c4ccccc4F)c3=O)[C@@H]21
42	9	7.2	16	O=C1CNC[C@H]2[C@@H](c3ccc(C#CC4CCCCC4)cc3)[C@H](CO)N12
43	-1	4.2	3	Cn1cnc(S(=O)(=O)N2CCCCN3[C@@H](CO)[C@H](c4ccc(C#CC5CCCC5)cc4)[C@@H]3C2)c1
44	0	1.4	1	N#C[C@H]1[C@H](c2ccc(-c3ccccc3F)cc2)[C@H](CO)N1C(=O)c1ccccn1
45	.	.	?	CN1c2ccc(-c3cccc(C#N)c3)cc2[C@H]2[C@H](CCN2S(=O)(=O)c2ccccc2F)[C@H]1CO

Some of the entries so far, with values under each structure.
Under each structure: DUX4 inh difference | DUX4 inh control | DUX4 inh
36	CO[C@@H]1CN(C)C(=O)c2ccc(NC(=O)C3CCC3)cc2OC[C@H](C)N(C(=O)CN(C)C)C[C@@H]1C
 : 1 | -0.5 | 1
37	CN(C)C(=O)c1cccc(-c2ccc([C@H]3[C@H]4CN(S(C)(=O)=O)CCCCN4[C@H]3CO)cc2)c1
 : 29 | 7.6 | 36
38	COC(=O)C[C@@H]1C[C@@H]2c3cc(NC(=O)Cc4ccncc4)ccc3O[C@@H]2[C@@H](CO)O1
 : 0 | 3.9 | 4
39	Cc1ccccc1S(=O)(=O)N1C[C@@H](O)COC[C@@H]2O[C@@H](CC(=O)NCc3ccccc3Cl)CC[C@H]21
 : -1 | -1.0 | -2
40	C/C=C/c1ccccc1[C@@H]1[C@@H](C#N)N(C(C)=O)[C@@H]1CO
 : 10 | 6.7 | 16
41	CCN1[C@H](C(=O)NC2CCC2)[C@@H](CO)[C@@H]2Cn3c(ccc(-c4ccccc4F)c3=O)[C@@H]21
 : -2 | -3.1 | -5
42	O=C1CNC[C@H]2[C@@H](c3ccc(C#CC4CCCCC4)cc3)[C@H](CO)N12
 : 9 | 7.2 | 16
43	Cn1cnc(S(=O)(=O)N2CCCCN3[C@@H](CO)[C@H](c4ccc(C#CC5CCCC5)cc4)[C@@H]3C2)c1
 : -1 | 4.2 | 3
44	N#C[C@H]1[C@H](c2ccc(-c3ccccc3F)cc2)[C@H](CO)N1C(=O)c1ccccn1
 : 0 | 1.4 | 1
45	CN1c2ccc(-c3cccc(C#N)c3)cc2[C@H]2[C@H](CCN2S(=O)(=O)c2ccccc2F)[C@H]1CO
 : . | . | ?

Later entries
No.	DUX4 inh difference	DUX4 inh control	DUX4 inh	molecule
46	-1	0.1	-1	C[C@@H]1CN([C@@H](C)CO)C(=O)Cc2cc(NC(=O)c3ccncc3)ccc2O[C@@H]1CN(C)Cc1ccc2c(c1)OCO2
47	9	0.5	9	C[C@H]1CN([C@@H](C)CO)C(=O)CCCn2cc(nn2)CO[C@@H]1CN(C)C(=O)CCC(F)(F)F
48	2	-2.1	0	COc1ccc(CNC(=O)C[C@H]2C=C[C@H](NC(=O)Nc3ccc4c(c3)OCO4)[C@H](CO)O2)cc1
49	2	-0.8	2	O=C(C[C@H]1CC[C@@H]2[C@H](COC[C@@H](O)CN2CCC(F)(F)F)O1)NCC1CC1
50	-6	3.3	-3	O=C([C@H]1[C@H](CO)[C@H]2Cn3c(ccc(-c4ccccc4F)c3=O)[C@@H]1N2C(=O)C1CCC1)N1CCOCC1
51	2	-0.2	1	O=C(C[C@H]1CC[C@H]2[C@@H](COC[C@@H](O)CN2S(=O)(=O)c2ccc(F)cc2)O1)N1CCc2ccccc2C1
52	6	-2.5	3	CCCNC(=O)C[C@H]1CC[C@H]2[C@H](COc3ccc(NC(=O)c4cc(F)cc(F)c4)cc3C(=O)N2C)O1
53	3	-4.4	-2	C[C@@H]1CN([C@@H](C)CO)C(=O)c2cc(C#C[C@@H](C)O)cnc2O[C@H]1CN(C)Cc1cncnc1
54	.	.	?	CCC(=O)N1C[C@@H](C)[C@H](OC)CN(C)C(=O)c2cc(NC(=O)Nc3ccc(Cl)cc3)ccc2OC[C@H]1C
55	-2	4.5	3	Cc1noc(C)c1NC(=O)Nc1ccc2c(c1)C(=O)N(C)[C@@H]1CC[C@@H](CC(=O)N[C@@H]3CCN(Cc4ccccc4)C3)O[C@H]1CO2
56	5	2.7	8	CCC(=O)N1[C@H](C(=O)N2CCCCC2)[C@@H](CO)[C@@H]2Cn3c(ccc(-c4ccccc4)c3=O)[C@@H]21
57	7	-5.3	2	C[C@@H]1CN([C@H](C)CO)C(=O)CCCn2cc(nn2)CO[C@H]1CN(C)C(=O)c1cc(-c2ccccc2)on1
58	-30*	-43*	-73*!	Cc1cccc(S(=O)(=O)N2C[C@@H]3N[C@H](C2)C3c2ccc(-c3ccccc3C)cc2)c1 (some centres not stated)
59	-2	7.6	5	CC(=O)N1CC2(C1)[C@H](c1ccccc1)[C@@H](CO)N2C(=O)c1cnccn1
60	-4	18	13	CN(C)C(=O)c1ccc(-c2ccccc2[C@@H]2[C@@H](CO)N(C(=O)C3CCC3)[C@H]2C#N)cc1
61	.	.	?	COc1ccccc1CNC(=O)C[C@H]1C[C@H]2c3cc(NC(=O)c4ccc5c(c4)OCO5)ccc3O[C@H]2[C@@H](CO)O1
62	1	4.4	5	C/C=C/c1cnc2c(c1)C(=O)N([C@@H](C)CO)C[C@H](C)[C@H](CN(C)C(=O)Nc1cccc(OC)c1)O2
63	-10	0.7	-9	CN1CCCCN2[C@H](C1)[C@@H](c1ccc(C#CC3(O)CCCC3)cc1)[C@@H]2CO
64	9	-2.3	7	COCCNC(=O)C[C@@H]1C[C@H]2c3cc(NC(=O)C4CCC4)ccc3O[C@H]2[C@@H](CO)O1
65	14	6.2	20	CC(=O)N1CC2(C1)[C@H](c1ccccc1)[C@@H](CO)N2C(=O)Cc1ccccc1
66	-2	0.2	-2	N#C[C@@H]1[C@@H](c2ccc(-c3cccnc3)cc2)[C@H](CO)N1C(=O)C1CCOCC1
67	10	-2.2	8	CCNC(=O)C[C@H]1CC[C@H]2[C@@H](COC[C@H](O)CN2C(=O)c2ccccn2)O1
68	-1	-9.3	-10	O=C(C[C@H]1C[C@@H]2c3cc(NC(=O)C4CCC4)ccc3O[C@@H]2[C@@H](CO)O1)NCc1cccc(F)c1
69	7	0.7	8	COc1ccccc1-c1ccc2c(c1)[C@H]1[C@H](CCN1S(=O)(=O)c1cccc(C)c1)[C@H](CO)N2
70	-3	3.3	1	CC(=O)N1[C@H](CO)[C@H](c2ccccc2)[C@@H]1CN(C(=O)c1ccc(F)cc1)C(C)C
71	-1	2.0	1	CCC(=O)N1[C@H](CO)[C@H](c2ccc(-c3ccccc3)cc2)[C@@H]1CNC(=O)C1CC1
72	3	-3.2	0	Cc1noc(C)c1NC(=O)Nc1ccc2c(c1)C(=O)N([C@H](C)CO)C[C@H](C)[C@@H](CN(C)S(=O)(=O)c1ccc(F)cc1)O2
73	-2	0.9	-1	C[C@@H]1CCCCO[C@@H](CN(C)Cc2ccncc2)[C@H](C)CN([C@H](C)CO)C(=O)c2cc(NS(=O)(=O)c3ccc(Cl)cc3)ccc2O1
74	0	-9.3	-9	C/C=C/c1ccc([C@H]2[C@@H](CO)N(CC3CC3)C23CN(C(=O)c2ccc4c(c2)OCO4)C3)cc1

An excerpt; the hit share may differ from the screen's.
